Assay outcomes from PubChem.
gsp agonist – gsp mutant agonism. gsp mutant cells, cAMP HTRF, 30 min; control for the full effect not named in the record. Potency, µM (series often up to 76.9 µM), inactives show at the top dose activation (cAMP increase), actives largely listed as activators. 340,000 compounds, 0.13% hits; active = well fitted activation curve with a large enough effect; inconclusive = small, poorly fitted or top-dose-only effect, or another doubt; inactive = no such curve, though single readings can be large or run the other way; cell line not stated here;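 further: phosphodiesterase inhibitor Ro 20-1724 added with compounds to block cAMP breakdown; potency means the concentration at half of the fitted maximal effect; nearly all actives have a fitted effect of over 60% in size; about a fifth of the inactives were tested at one dose only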
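Cells stably selected in G418 were plated at 2000/well, grown 16-24 hr, then given compounds in DMSO with the PDE inhibitor […] (300 uM solution added) for 30 min at 37C; cAMP was read by HTRF.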
TRPV1 PAM – enhances activation of the human vanilloid receptor TRPV1; Q8NER1; TRPV1-expressing cells, Fluo-8 calcium influx, capsaicin EC20 potentiation; host cell line not named in the record; control for the full effect not named in the record; potentiation, % at 8.33 µM; 320,000 compounds, 0.02% hits; active means potentiation above 80%; inconclusive means 30% to 80%; inactive means below 30%; further: 0% is about no effect
Target sequence (Q8NER1 whole entry, looked up): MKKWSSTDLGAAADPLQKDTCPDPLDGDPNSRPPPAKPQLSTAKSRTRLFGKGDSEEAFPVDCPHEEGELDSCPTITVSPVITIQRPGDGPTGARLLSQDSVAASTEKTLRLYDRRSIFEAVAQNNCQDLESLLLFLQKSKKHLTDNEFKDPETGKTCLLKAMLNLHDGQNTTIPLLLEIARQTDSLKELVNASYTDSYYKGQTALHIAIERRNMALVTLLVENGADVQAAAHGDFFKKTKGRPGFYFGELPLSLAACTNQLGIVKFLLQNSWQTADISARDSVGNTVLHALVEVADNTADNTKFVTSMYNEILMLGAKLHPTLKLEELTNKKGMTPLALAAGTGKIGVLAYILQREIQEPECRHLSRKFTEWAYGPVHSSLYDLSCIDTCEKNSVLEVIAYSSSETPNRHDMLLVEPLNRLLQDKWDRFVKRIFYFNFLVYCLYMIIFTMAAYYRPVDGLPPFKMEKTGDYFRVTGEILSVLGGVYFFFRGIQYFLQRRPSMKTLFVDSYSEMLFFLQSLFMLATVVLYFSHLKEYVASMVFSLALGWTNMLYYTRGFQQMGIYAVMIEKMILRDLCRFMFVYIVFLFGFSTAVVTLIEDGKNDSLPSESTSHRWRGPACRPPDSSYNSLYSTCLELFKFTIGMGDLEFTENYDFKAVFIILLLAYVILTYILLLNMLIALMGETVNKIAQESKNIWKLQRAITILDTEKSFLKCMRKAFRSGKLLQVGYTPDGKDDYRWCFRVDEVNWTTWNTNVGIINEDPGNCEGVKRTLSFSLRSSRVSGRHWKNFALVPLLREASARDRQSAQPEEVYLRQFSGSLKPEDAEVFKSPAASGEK
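Fluo-8 calcium influx in TRPV1-expressing cells, kinetic read (ex 480/em 520 nm). Compound added and read 3 min for agonist activity, followed by capsaicin at EC20 final and 2 min further read for enhancement.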
gsp antag – gsp mutant antagonism. 340,000 compounds, 0.4% hits. gsp-mutant cells, cAMP HTRF, 30 min; control for the full effect not named in the record. Potency, µM (highest dose often 76.9 µM), for inactives: at the top dose activity change, negative = inhibition, hits mostly inhibitors; active = falling curve of any shape with a large fitted effect; inconclusive = falling curve, mostly with a smaller effect; inactive = flat or rising curve; cell line not stated here;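 further: intracellular cAMP measured with PDE inhibitor Ro 20-1724 present during compound exposure; potency means the concentration at half of the fitted maximal effect; on the % scale 0 is the no-effect control and ±100 the full control effect; nearly all actives have a fitted effect of over 65% in size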
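HTRF cAMP read-out (cAMP-d2 plus anti-cAMP antibody-K in lysis buffer, 30 min RT). Before lysis, cells are exposed to compounds with […] for 30 min at 37C in DPBS containing Ca/Mg, BSA and Tween 20.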
Sfp PPTase inh – blocks B. subtilis Sfp PPTase activity. Q9F4F7. Biochemical Sfp PPTase activity, qHTS. AID 1490. 310,000 compounds, 3.5% hits. Potency, µM, without a hit: max response, negative = inhibition, actives largely listed as inhibitors; active means well fitted inhibition curve with a large enough effect; inconclusive means small, poorly fitted or top-dose-only effect, or another doubt; inactive means no such curve, though single readings can be large or run the other way;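 further: the enzyme is Sfp with the accession as filed and its product quenches rhodamine fluorescence; potency means the concentration at half of the fitted maximal effect; 0% = enzyme reaction without inhibitor and -100% = no enzyme wells; top concentration of the series not given in the record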
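Fluorescence-quenching assay: 15 nM Sfp-PPTase preincubated 15 min at room temperature with compound, then 5 uM rhodamine-CoA and 12.5 uM BHQ-2-labelled YbbR peptide added. Fluorescence (ex 525/em 598 nm) read at start and after 30 min; difference gives rate.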
CtBP-E1A blk – blocks the CtBP interaction with E1A; 340,000 compounds, 0.49% hits; AID 651724; AlphaScreen GST-E1A/His-CtBP binding, 1536-well; hits give low values; control for the full effect not named in the record; activity change, % (no concentration beside the values); in the data active means activity change below about -65%; inconclusive means about -30% to -65%; inactive means above about -30%; further: on the % scale 0 is the no-effect control and ±100 the full control effect
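Homogeneous bead-based format: GST-tagged E1A captured on glutathione donor beads, His-tagged CtBP on nickel acceptor beads; compounds precede bead addition by 2 h at 37 °C.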
ClpP mod – qHTS Assay for Activators of ClpP | Potency, µM (titrated, usually from 57.5 µM), inactives show at the top dose activity change, negative = active | purified B. subtilis ClpP, FRET peptide cleavage, 20 min | 340,000 compounds, 1.9% hits; active = well fitted falling curve with a large enough effect; inconclusive = small, poorly fitted or top-dose-only effect; inactive = no such curve, though single readings can be large or run the other way; further: potency means the concentration at half of the fitted maximal effect; the source files actives as falling curves though it sought activators and does not explain the sign; nearly all actives have a fitted effect of over 65% in size; many hits overshoot -100%
Target sequence (P80244 whole entry, looked up): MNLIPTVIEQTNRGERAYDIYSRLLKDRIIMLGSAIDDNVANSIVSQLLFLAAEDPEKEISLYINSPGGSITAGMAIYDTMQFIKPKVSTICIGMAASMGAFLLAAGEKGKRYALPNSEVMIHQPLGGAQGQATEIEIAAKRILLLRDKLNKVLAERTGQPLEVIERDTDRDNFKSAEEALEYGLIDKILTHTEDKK
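ClpP 10 microg/mL final, pH 8 Tris/KCl buffer with BSA, glycerol, Tween-20; compound pinned in; FRET-FV substrate; RT 20 min; Ex320/Em430; ΔFRET vs ADEP 5.8 microM, DMSO, no enzyme.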
Menin MLL FP FL – menin-MLL binding inhibition, fluorescein peptide. Fluorescence polarization, fluorescein-MLL peptide displacement from menin. FP activity change, % at 61.4 µM. 290,000 tested, under 10 active. AID 1766; inconclusive = falling polarisation curve, or a change in total fluorescence; inactive = total fluorescence flat and polarisation flat or rising; no compound was filed as active; the % refers to the polarisation; negative = inhibition;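 further: % of control where 0% means no effect; inhibitors lower the polarisation; unlabelled MLL peptide was the positive control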
* hit, by the source's call; ? = inconclusive; . = not tested or not shown; & = joins results of further samples; [ ] = remark or other dose.

Values run as follows: gsp agonist | TRPV1 PAM | gsp antag | Sfp PPTase inh | CtBP-E1A blk | ClpP mod | Menin MLL FP FL
(1) O=C(C1CCCO1)N1CCC2(CC1)OCCO2 (stereo unspecified)
→ 18% | 0 | 15% | 13% | 16 | 1.4% | 4.2
(2) CN(C)[C@@H]1C(=O)C(C(N)=O)=C(O)[C@@]2(O)C(=O)C3=C(O)c4c(O)cccc4[C@@](C)(O)C3[C@H](O)C12 (stereo partly specified)
→ . | 5&-11 | -4%&-2% | . | -67* | -14%&-1.9% | .
(3) CN1CC=C2C(C#N)=C(N)C(C#N)(C#N)C(c3ccncc3)C2C1 (stereo unspecified)
→ 6% | -40 | -6% | 1% | 11 | 28µM* | ?
(4) OCC#CC[N+]1(CC#Cc2ccccc2)CCCC1
→ ? | 2 | 0% | 12% | 12 | 0.7% | 2.0
(5) CC(C)CN1CCN(Cc2cccc3c2OCO3)CC1CCO (stereo unspecified)
→ -2%[15.4 µM] | 0 | 23% | 15% | -6 | . | -2.2
(6) O=C(c1cc(C(=O)NCc2ccccc2)c(=O)n(Cc2ccccc2)c1)c1cc(Cl)ccc1O
→ -5% | -1 | -9% | 2% | -16 | 30% | .
(7) CCOC(=O)c1ccc2c(c1)n(Cc1ccccc1)c(C)[n+]2CC
→ 0% | 0 | 7% | 22% | 3 | . | -2.0
(8) COCCOC(=O)c1c(N)n(Cc2ccco2)c2nc3ccccc3nc12
→ 2% | 3 | 16% | 56µM* | -2 | 7.7% | ?
(9) O=[N+]([O-])c1cc([As](=O)(O)c2ccc(O)c([N+](=O)[O-])c2)ccc1O
→ ? | 21 | 0% | -13% | 7 | . | -10
(10) Cc1nn(Cc2ccccc2Cl)c(Cl)c1C(=O)OCC(=O)NCc1ccco1
→ -17% | -4 | -15% | 12% | 3 | -2.0% | -0.5
(11) CC1CCC(N2CCN(C(=O)COc3ccccc3)CC2)CC1 (stereo unspecified)
→ 10%[15.4 µM] | -8 | -8% | -23% | -3 | 0.1% | -9.0
(12) Cc1nn(CC(C)C)c(Cl)c1C(=O)O
→ 7%[15.4 µM] | -2 | 2% | 14% | 0 | ? | -1.6
(13) C=CCNC(=S)/N=C/c1c(O)[nH]c(=O)[nH]c1=O
→ 23%[15.4 µM] | -6 | -2% | 45µM* | -9 | . | ?
(14) C=CCN1CC[C@]23c4c5ccc(O)c4OC2C(O)CC[C@@]3(O)[C@H]1C5 (stereo partly specified)
→ . | . | 2% | . | 0 | -0.5% | .
(15) Cc1ccsc1C(=O)C1CCCN(Cc2sc(N(C)C)nc2Cl)C1 (stereo unspecified)
→ ? | -1 | -26% | ? | -9 | . | -9.2
(16) O=C1NC(=O)N(CCc2ccc(F)cc2)C(=O)/C1=C/C=C/c1ccccc1
→ 9%[15.4 µM] | 4 | -4% | ? | 3 | . | ?
(17) CCCCCCn1c(O)c(C=NCCN2CCCCC2)c(=O)[nH]c1=O
→ 31% | 11 | 8% | 15% | 8 | -1.4% | 3.4
(18) CC(=O)NC(Cc1ccc(N(CCCl)CCCl)cc1)C(=O)NC(CC(C)C)C(=O)O (stereo unspecified)
→ -1%[15.4 µM] | 5 | -3% | ? | 0 | . | -23
(19) Cc1cc(OCC(=O)NCc2ccncc2)c2c3c(c(=O)oc2c1)CCCC3
→ 7% | -10 | -26% | 16% | -6 | 4.3% | .
(20) COC(=O)C1=C(c2cccc(OCc3ccccc3)c2)C[C@@H]2CC[C@H]1N2C(=O)NCc1ccc(F)cc1
→ -6% | 15 | -20% | . | 0 | 1.0% | .
(21) CCN(CC)C(=O)c1ccc(NC(=O)C2=C(C)OCCS2)cc1
→ ? | 11 | 4% | 1% | -2 | 1.3% | 2.3
(22) CCOC(=O)C1CCN(Cc2c(F)cccc2Cl)CC1
→ ? | 1 | -1% | ? | 8 | -1.2% | 1.6
(23) OC(Cn1c2ccccc2c2ccccc21)C[n+]1ccccc1 (stereo unspecified)
→ -4% | 8 | 1% | 4% | -2 | 0.0% | 2.0
(24) O=[N+]([O-])c1cc(O)c(O)c([N+](=O)[O-])c1
→ . | 3 | -2% | ? | -12 | 1.4% | ?
(25) O=C(C[N+]12CCC(CC1)C(CO)C2)c1ccc([N+](=O)[O-])cc1 (stereo unspecified)
→ 28% | 1 | 9% | 5% | . | 3.0% | -0.8
(26) COC(=O)C1=C(c2ccc(-c3ccccc3)c(F)c2)C[C@@H]2CC[C@H]1N2C(=O)NC(C)C
→ -1% | -6 | -22% | . | 2 | -1.6% | .
(27) O=C1NC(=O)N(c2ccccc2)C(=O)/C1=C\C=C\c1ccccc1
→ -5%[15.4 µM] | 21 | -11% | 16µM* | 3 | . | ?
(28) CCN(c1ccc(C)cc1C)S(=O)(=O)c1nnc(NC(=O)c2ccco2)s1
→ -53%[inhibitor] | ? | -9% | 14% | -23 | -23% | 6.4
(29) CCC(=NCCN1CCCCC1)c1c(O)n(C)c(=O)n(C)c1=O
→ -13% | 4 | 3% | -18% | 0 | -1.1% | -1.9
(30) OCCCc1ccc(O)c(O)c1
→ . | 16 | 2% | 50µM* | 0 | 1.0% | 1.2
(31) N#CC1=C(N)Oc2c(c(=O)oc3ccccc23)C1c1ccc(OC(=O)N2CCOCC2)cc1 (stereo unspecified)
→ 0%[15.4 µM] | 2 | -3% | ? | 5 | . | ?
(32) CC(N=Cc1c(O)[nH]c(=O)[nH]c1=O)c1ccccc1 (stereo unspecified)
→ 1% | 9 | 2% | 9% | 0 | 0.5% | 2.6
(33) COc1cc(C=C2C(=O)NC(=O)NC2=O)cc(OC)c1OC
→ 20% | 16 | 9% | 32µM* | . | 2.5% | ?
(34) CS(=O)(=O)NNP(=O)(NNS(C)(=O)=O)NC(=O)c1ccccc1
→ -1% | . | 8% | 2% | 8 | -0.5% | 5.6
(35) Cc1c(C(=O)C(=O)N2CCC3(CC2)OCCO3)c2ccccc2n1C
→ 6%[15.4 µM] | -15 | -34% | -3% | -13 | . | -2.0
(36) Cc1cc(C)cc(-n2c(O)c(C=Nc3ccc(N4CCOCC4)cc3)c(=O)[nH]c2=S)c1
→ 5% | 11 | 10% | 2% | -10 | -1.4% | 17
(37) O=C(Nc1ccccc1Cl)OC1CN2CCC1CC2 (stereo unspecified)
→ -3%[15.4 µM] | -5 | -4% | 9% | 0 | . | -0.2
(38) Fc1ccc(CCNCc2ccc(Br)cc2)cc1
→ 22% | 0 | 7% | 3% | -22 | . | 6.2
(39) O=C(CN1CCN(c2ccccc2F)CC1)Nc1cccnc1Cl
→ -16%[15.4 µM] | -38 | 10% | 2% | 0 | . | 0.2
(40) CCOC(=O)C1C(=O)N(C)C2(C)CC1c1cc(OC)ccc1O2 (stereo unspecified)
→ -55%[inhibitor] | 6 | 6% | 8% | 2 | -2.9% | 1.5
(41) C[C@H]1CN([C@@H](C)CO)C(=O)CCCn2nncc2CO[C@@H]1CN(C)C(=O)Nc1ccc(N2CCCCC2)cc1
→ -66%[inhibitor] | . | . | . | -6 | 0.9% | .
(42) COc1cccc(N2C(=O)NC(=O)C3(Cc4cc(C)ccc4N(C)C3)C2=O)c1 (stereo unspecified)
→ 0% | 2 | 7%[15.4 µM] | -1% | 7 | 0.7% | -1.4
(43) NCCc1c[nH]c2ccc(OCc3ccccc3)cc12
→ -1%[15.4 µM] | 3 | -4% | 2% | -13 | . | 0.1
(44) CCOC(=O)C1=C(N)OC2=C(C(=O)CCC2)C12C(=O)N(CC(N)=O)c1ccccc12 (stereo unspecified)
→ -14% | 1 | 3% | 3% | 5 | -1.5% | 4.5
(45) C[C@H]1CN([C@@H](C)CO)C(=O)CCCn2nncc2CO[C@H]1CN(C)C(=O)Oc1cccc2ccccc12
→ -99%[inhibitor] | . | . | . | 7 | 2.3% | .
(46) COc1ccccc1N1CCNCC1
→ . | -9 | 13% | 3%&2%&1% | 2 | 0.2% | -2.8&0.5&-0.1
(47) c1ccc(C(OCCN2CCN(c3ncccn3)CC2)c2ccccc2)cc1
→ ? | . | 2% | . | -24 | . | .
(48) COc1ccc(Cc2nccc3cc(OC)c(OC)cc23)cc1OC
→ . | 4 | 13% | -9%&-1%&2% | -18 | -0.9% | -1.2
(49) COc1cc(C(=S)N2CCOCC2)ccc1O
→ 2%[15.4 µM] | 14 | 8% | 14% | 7 | . | -0.7&-4.2
(50) COc1ccccc1CN1CCN(C(=O)COc2ccccc2)CC1
→ 29% | 10 | -8% | -11% | -9 | -2.7% | 2.9
(51) C[C@@H]1O[C@@H](O[C@@H]2C=C3CC[C@@H]4C(CC[C@]5(C)[C@@H](c6ccc(=O)oc6)CC[C@]45O)[C@@]3(C)CC2)[C@H](O)[C@H](O)[C@H]1O (stereo partly specified)
→ . | 1 | 4% | . | -15 | -4.8% | .
(52) COc1ccc(-c2cc(=O)c3c(OC)c(OC)c(OC)cc3o2)cc1
→ . | ? | -16% | 11% | -12 | -11% | -1.1
(53) CC1CCN(CC(=O)c2ccccc2Cl)CC1
→ -2%[15.4 µM] | 2 | 3% | 5% | 0 | -1.8% | 0.4
(54) O=C(OCCCCN1C(=O)c2ccccc2C1=O)c1ccc(Br)o1
→ 16% | 2 | ? | 15% | 4 | -1.5% | -6.1
(55) O=C(OCC(=O)c1ccc([N+](=O)[O-])cc1)/C(=C/c1ccc(Cl)cc1)NC(=O)c1ccccc1
→ -56%[inhibitor] | -11 | -10% | ? | . | -0.7% | .
(56) Cc1cc(/C=C2\C(=O)NC(=O)N(c3ccc(Cl)cc3)C2=O)c(C)n1-c1cccc(C(=O)O)c1
→ 4% | -28 | 8% | -9% | -11 | -3.5% | ?
(57) NNP(=O)(CC(=O)c1ccccc1)c1ccccc1 (stereo unspecified)
→ 1% | 4 | 5% | 16% | . | 1.0% | -2.4
(58) O=c1c2ccccc2nc(-c2ccc(Cl)cc2Cl)n1-c1ccncc1
→ ? | -2 | -6% | -10% | -6 | -1.6% | 0.2
(59) COc1ccc2c(c1)C1(C)CCN(C)CC(C1)C2O (stereo unspecified)
→ 22% | . | . | . | 0 | -3.4% | .
(60) COc1ccc(NC(=O)c2ccccc2SCc2ccccc2)cc1
→ -193%[inhibitor] | . | . | . | 12 | -2.3% | .
(61) COc1ccc(-c2cc(=Nc3ccccc3)c3cc(C)ccc3o2)cc1
→ 9% | 1 | -23% | ? | . | 3.9% | -1.0

A portion of the library, so the mix of outcomes need not match the whole.
